Choline anaer gr: choline-fed anaerobic bacterial growth inhibition; calls only; Gram-negative bacterium anaerobic choline minimal medium, absorbance growth; active compounds read low; many inactives read as strong as hits in the columns shown; actives 0.2% (n = 55,000);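 active = growth z-score on choline under -2 at 7 or 20 h with little or no fall on glycerol, limits in tiers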;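 note: stock transfer was 300 nL into about 50 µL; the organism is E. coli; final concentration not given here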
Choline anaer gr early: also measured in Choline anaer gr; calls as there; z-score; measured here: choline growth z-score, timepoint 1;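 score of optical density at 7 h as mean of two plates; lower means less growth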
An asterisk follows results filed as active; i = inactive; + = active, no number; & = joins results of further samples. Only part of the results is shown; count on the stated rates, not on these rows.

Order of values: Choline anaer gr early	Choline anaer gr
1) O=C(CCCN1CCC(n2c(=O)[nH]c3ccccc32)CC1)c1ccc(F)cc1
→ -0.03	i
2) NCCc1ccc(O)cc1
→ 0.16	i
3) c1ccc2c(c1)OCC(C1=NCCN1)O2 (stereo not given)
→ 0.34&0.08&0.76&-0.17	i
4) N#Cc1nn(-c2c(Cl)cc(C(F)(F)F)cc2Cl)c(N)c1S(=O)C(F)(F)F (stereo not given)
→ 0.29	i
5) COc1cccc([C@H]2[C@@H]3C(=NN2C(C)=O)C2CCN3CC2)c1
→ 1	i
6) CC1(C)CC(O)CC(C)(C)N1O
→ 0.26	i
7) CC(=O)OCC1=C(C(=O)[O-])N2C(=O)[C@@H](NC(=O)CCC[C@@H](N)C(=O)[O-])[C@H]2SC1.[Zn+2]
→ 0.17	i
8) CCS(=O)(=O)Nc1cccc(C(=C2CCCCC2)c2cnc[nH]2)c1
→ -0.29	i
9) Clc1ccc(CON=C(Cn2ccnc2)c2ccc(Cl)cc2Cl)c(Cl)c1
→ 0.67	i
10) COc1ccc(CC2CC3CCN2CC3)cc1 (stereo not given)
→ -0.52	i
11) COc1cc(N)c(Cl)cc1C(=O)NC1CN2CCC1CC2 (stereo not given)
→ 1.4&0.65	i
12) Cc1ccc(Cn2cccc(C(=O)Nc3nc(C)cs3)c2=O)cc1
→ -0.11	i
13) CCNC(=O)[C@H]1O[C@@H](n2cnc3c(N)ncnc32)[C@@H](O)C1O (stereo not given in full)
→ 0.52	i
14) CCCn1c(=O)[nH]c2c(C(=O)N3CCC4(CC3)OCCO4)snc2c1=O
→ -0.9	i
15) Cc1sc2ccccc2c1CC1=NCCN1
→ 0.98	i
16) CCCCc1ccc(C(=O)O)nc1
→ -0.39	i
17) CC1OC1P(=O)(O)O (stereo not given)
→ 0.8	i
18) Clc1cnc(Oc2ccc(Oc3ncc(Cl)cc3Cl)cc2)c(Cl)c1
→ 0.81	i
19) CCCC[N+]1(C)C2CC(OC(=O)[C@H](CO)c3ccccc3)CC1C1OC12 (stereo not given in full)
→ 1	i
20) C[C@@H]1O[C@@H](O[C@H]2C[C@@H](O)[C@]3(CO)[C@@H]4C(CC[C@]3(O)C2)[C@@]2(O)CC[C@H](C3COC(=O)C3)[C@@]2(C)C[C@H]4O)[C@H](O)[C@H](O)[C@H]1O (stereo not given in full)
→ 1	i
21) Oc1ccc2c3c1O[C@H]1c4[nH]c5ccccc5c4C[C@@]4(O)C(C2)N(CC2CC2)CC[C@]314
→ 0.42	i
22) CC(=O)[C@H]1CC[C@H]2[C@@H]3CC[C@H]4C[C@H](O)CC[C@]4(C)[C@H]3C(=O)C[C@]12C
→ 0.34&0.45	i
23) O=C(O)Cc1cccnc1C(=O)O
→ -0.12	i
24) Cc1ccc(OCC(=O)N2CCN(CCc3ccncc3)CC2)cc1
→ -0.86	i
25) COc1cccc(CN2CCN(Cc3ccccc3F)CC2)c1
→ 0.2	i
26) CCCc1nc(C)cc(N2CCNCC2)n1
→ -1.1	i
27) CCCN1CCC[C@H](c2cccc(O)c2)C1
→ -0.03	i
28) Cc1nn(-c2ccccc2)c2c1C(c1ccc(Br)cc1)SCC(=O)N2 (stereo not given)
→ 1.1	i
29) O=C1CSC(c2ccc3c(c2)OCO3)c2c(-c3ccccc3)nn(-c3ccccc3)c2N1 (stereo not given)
→ 0.53	i
30) O=C(c1ccccc1)C1CN2CCC1CC2 (stereo not given)
→ -0.44	i
31) CC(C)c1nnc2ccc(N3CCN(C)CC3)nn12
→ 0.06	i
32) CC(C)[C@@]1(NC(=O)[C@@H]2C[C@@H]3c4cccc5[nH]cc(c45)C[C@H]3N(C)C2)O[C@@]2(O)[C@@H]3CCCN3C(=O)[C@H](Cc3ccccc3)N2C1=O
→ 0.93&-0.18	i
33) COC1(C[S@@](=O)c2ccccc2)CCN(CCc2c[nH]c3ccc(F)cc23)CC1
→ 0.03	i
34) CCOC(=O)c1sc2nc3c(cc2c1N)CN(C)CC3
→ 1.1	i
35) COc1ccc2c(c1)C1(CCN(C(=O)NC(C)C)C1)C(=O)N2 (stereo not given)
→ 0.06	i
36) Cc1ccccc1NC(=O)N1Cc2ccccc2-n2cccc2C1c1ccc(Cl)cc1 (stereo not given)
→ -0.29	i
37) COc1ccc2nc(NC(=O)Cn3cnc4nc5c(cc4c3=O)CCCC5)sc2c1
→ -0.74	i
38) Cc1cc2n(n1)CCCN2C(=O)CCC(=O)Nc1ccc(Cl)cc1C(=O)c1ccccc1
→ -0.03	i
39) CN1c2ccccc2C(NCCCCCCC(=O)O)c2ccc(Cl)cc2S1(=O)=O (stereo not given)
→ -1.8&0.77	i
40) CCCN(CCC)[C@H]1CCc2c(F)ccc(O)c2C1
→ 0.24	i
41) CCN(CC)C(=O)c1ccc(N2CCNCC2)c(NS(=O)(=O)c2ccc(Br)cc2)c1
→ 0.71	i
42) CC1c2cccn2-c2ccccc2CN1C(=O)NC1CCCC1 (stereo not given)
→ -0.64	i
43) COc1ccc2c(c1)C1(CCN(S(=O)(=O)c3cc(OC)ccc3OC)C1)C(=O)N2C (stereo not given)
→ -0.11	i
44) CN1CCN(c2nc3ccccc3nc2Cl)CC1
→ 0.57	i
45) CCn1cnc2c(Nc3cccc(Cl)c3)nc(N[C@@H]3CCCC[C@@H]3N)nc21
→ -0.53	i
46) Cc1cc(N2C(=O)[C@@H]3CCCN3[C@H]2c2ccccc2C)no1
→ -0.7	i
47) CCc1c(CN2CCN(C)CC2)csc1C
→ -2.1	i
48) CN1C[C@H](C(=O)N[C@]2(C)O[C@@]3(O)[C@@H]4CCCN4C(=O)[C@H](Cc4ccccc4)N3C2=O)C=C2c3cccc4[nH]cc(c34)C[C@H]21
→ 0.02	i
49) CC[C@@]1(O)C(=O)OCc2c1cc1n(c2=O)-c2cc3ccccc3nc2C1
→ 0.24	i
50) C[C@@H]1CN(C2CCC(C#N)(c3ccc(F)cc3)CC2)CC[C@]1(C(=O)O)c1ccccc1 (stereo not given in full)
→ 0.33	i
51) CC(C)n1cnc2c(C(=O)N[C@H]3CN4CCC3CC4)cc(Cl)cc21
→ -1	i
52) O=c1ccc2cc(OC3OC(CO)C(O)C(O)C3O)c(O)cc2o1 (stereo not given)
→ 0.44	i
53) CCCCC/C=C\C/C=C\C/C=C\C/C=C\CCCC(=O)NCC(=O)O
→ 0.53	i
54) CN1CCN(Cc2cc(C3CC3)on2)CC1
→ 0.47	i
55) O=C(Nc1ccc(Br)cc1F)c1cccn(Cc2ccc(F)cc2)c1=O
→ 2	i
56) CC1=NN=C(c2ccc(N)cc2)c2cc3c(cc2C1)OCO3
→ -0.22&-0.87	i
57) CN[C@@H]1C[C@@H](c2ccc(Cl)c(Cl)c2)c2ccccc21
→ -3.2&-2.8&-3.3	i
58) C=CC[C@@]1(O)CC[C@H]2[C@@H]3CCC4=CC(=O)CCC4=C3C=C[C@@]21C
→ 0.38	i
59) CN(C)CCN(C)CCc1ccc(Cl)c(Cl)c1
→ -1.3	i
60) C[C@]12CCC3C4CCC(=O)C=C4CCC3C1CCC2O (stereo not given in full)
→ 0.5	i

An excerpt of these results, with bars between the fields:
# | Structure | Choline anaer gr early | Choline anaer gr
53 | CCCCC/C=C\C/C=C\C/C=C\C/C=C\CCCC(=O)NCC(=O)O | 0.53 | i
58 | C=CC[C@@]1(O)CC[C@H]2[C@@H]3CCC4=CC(=O)CCC4=C3C=C[C@@]21C | 0.38 | i
35 | COc1ccc2c(c1)C1(CCN(C(=O)NC(C)C)C1)C(=O)N2 (stereo not given) | 0.06 | i
59 | CN(C)CCN(C)CCc1ccc(Cl)c(Cl)c1 | -1.3 | i

Continued.
Order of values: Choline anaer gr early	Choline anaer gr
61) COc1cccc(CNC(=O)N2CCC3(C2)C(=O)N(C)c2ccc(OC)cc23)c1 (stereo not given)
→ 0.12	i
62) Cc1ccc(Cn2cccc(C(=O)Nc3cc(C)on3)c2=O)cc1
→ -0.44	i
63) CN1CCC(c2c[nH]c3ccc(O)cc23)CC1
→ 0.71&0.31&0.66	i
64) COc1ccc2c(c1)[C@]13CCCC[C@@H]1[C@H](C2)N(C)CC3
→ 0.22&-0.08	i
65) O=C(O)c1nn(Cc2ccc(Cl)cc2Cl)c2ccccc12
→ -1.6&0.48&1.2	i
66) Nc1nc(N)nc(NC2CC2)n1
→ -0.08&0.06	i
67) CC(=O)N1N=C2C3CCN(CC3)[C@@H]2[C@@H]1c1ccc(Cl)cc1
→ 0.62	i
68) O=C(Nc1ccon1)c1cc2cccnc2n(Cc2ccccc2)c1=O
→ 0.49	i
69) CCCCCCCCCCCCCCCC[N+](C)(C)C
→ -2.7	i
70) NC(=O)CS(=O)C(c1ccccc1)c1ccccc1 (stereo not given)
→ 0.21&0.18&-0.26	i
71) CCC1(c2cccc(O)c2)CCCCN(C)C1 (stereo not given)
→ 0.77&0.5	i
72) Brc1ccc(C2NCCc3[nH]cnc32)cc1 (stereo not given)
→ 0.51	i
73) CC(=O)N1N=C(c2cccnc2)OC1c1cccnc1 (stereo not given)
→ -1.7	i
74) Cc1ccc(C2c3cccn3-c3ccccc3CN2S(=O)(=O)c2cnn(C(F)F)c2C)cc1 (stereo not given)
→ 0.79	i
75) C=C1CC[C@@]2(O)[C@H]3Cc4ccc(O)c5c4[C@@]2(CCN3CC2CC2)[C@H]1O5
→ 0.52	i
76) COC(=O)CN1CN(c2ccccc2)C2(CCN(Cc3ccc4ccccc4c3)CC2)C1=O
→ 1.4	i
77) CCCCC/C=C\C/C=C\C/C=C\C/C=C\CCCC(=O)Nc1ccc([N+](=O)[O-])cc1
→ 1.1	i
78) CC(C)n1c(=O)[nH]c2c(C(=O)N3CCC4(CC3)OCCO4)snc2c1=O
→ 0.59	i
79) COc1ccc2c(c1)C1(CCN(C(=O)NC(C)(C)C)C1)C(=O)N2C (stereo not given)
→ -0.11	i
80) FC(F)(F)c1cccc(C2=CCN(CCc3ccc4ccccc4c3)CC2)c1
→ 0.3	i
81) N#CC1=CN(c2ccc(F)c(F)c2)c2cccc(F)c2S1(=O)=O
→ 0.13	i
82) CN[C@@H]1[C@@H](O)[C@@H](O[C@@H]2[C@@H](O)[C@H](O[C@H]3O[C@H]([C@@H](C)NC)CC[C@H]3N)[C@@H](N)C[C@H]2N)OC[C@]1(C)O (tested in a mixture with another compound)
→ 0.61	i
83) c1ccc(OC[C@@H]2CCCN3CCCCC23)nc1 (stereo not given in full)
→ 0.35	i
84) N#CC(C#N)=NNc1ccc(OC(F)(F)F)cc1
→ -4.4	i
85) CCCCCCCCCCCCCCCC(=O)OC[C@H](COP(=O)([O-])OCC[N+](C)(C)C)OC(=O)CCCC=O
→ -0.24	i
86) CCOP(=S)(OCC)Oc1cc(C)nc(C(C)C)n1
→ 0.13	i
87) NC(=O)OCCCc1ccccc1
→ 0.49&0.25	i
88) COc1ccc2c(c1)C13CCCCC1C(C2)N(C)CC3 (stereo not given)
→ 0.16	i
89) CC(C)C12CN3CN(C1)CC(C(C)C)(C3)C2O (stereo not given)
→ -0.44	i
90) Cc1ccc2[nH]cc(C(O)CN3CCCCC3)c2c1 (stereo not given)
→ 0.62	i

The closing 3 compounds of the part above lead into the next.
Order of values: Choline anaer gr early	Choline anaer gr
88) COc1ccc2c(c1)C13CCCCC1C(C2)N(C)CC3 (stereo not given)
→ 0.16	i
89) CC(C)C12CN3CN(C1)CC(C(C)C)(C3)C2O (stereo not given)
→ -0.44	i
90) Cc1ccc2[nH]cc(C(O)CN3CCCCC3)c2c1 (stereo not given)
→ 0.62	i
91) CNC1CC(c2ccc(Cl)c(Cl)c2)c2ccccc21 (stereo not given)
→ -0.84	i
92) CC1(C)C(C=C(Cl)Cl)C1C(=O)OC(C#N)c1cccc(Oc2ccccc2)c1 (stereo not given)
→ -0.83&0.63	i
93) NC(=O)c1ccc(NC(=O)c2cccn(Cc3ccc(Br)cc3)c2=O)cc1
→ 0.94	i
94) O=C(NCNC(=O)NC1C(=O)NC(=O)N1CO)NC1C(=O)NC(=O)N1CO (stereo not given)
→ 0.1	i
95) NCc1cc(=O)[nH]o1
→ 0.41	i
96) O=C(NCCCN1CCOCC1)c1cc2cccnc2n(Cc2ccc(F)cc2)c1=O
→ 0.19	i
97) CN1CCN(C(=O)COc2ccc(-c3nc(-c4ccccc4)no3)cc2)CC1
→ -0.7	i
98) O[C@H]1[C@H]2[C@H](O)CCCN2C[C@H]1O
→ 0.77	i
99) CCN(C(C)=O)c1cccc(-c2ccnc3c(C#N)cnn23)c1
→ 0.36	i
100) Cn1c2c(c3ccccc31)CCNCC2
→ 0.41	i
101) CN1CCc2cccc(Cl)c2CC1
→ -2.3*	+
102) CC1OC(OC2CC(O)[C@]3(CO)[C@H]4C(O)C[C@]5(C)C(C6=CC(=O)OC6)CC[C@]5(O)[C@@H]4CC[C@]3(O)C2)C(O)C(O)C1O (stereo not given in full)
→ 0.61	i
103) C[C@]12CC[C@H](O)C[C@H]1CC[C@@H]1[C@@H]2C[C@@H](O)[C@]2(C)[C@@H](C3=CC(=O)OC3)CC[C@]12O
→ 0.38	i
104) CN(C)[C@@H]1C(=O)C(C(N)=O)=C(O)[C@@]2(O)C(=O)C3=C(O)c4c(O)ccc(Cl)c4[C@@](C)(O)[C@H]3C[C@@H]12
→ 0.31	i
105) CCC1=C[C@@H]2CN3CCc4c([nH]c5ccccc45)[C@@](C(=O)OC)(C2)[C@@H]13
→ -0.58&-0.19	i
106) CCc1ccccc1NC(=O)N1Cc2ccccc2-n2cccc2C12CCN(C(C)=O)CC2
→ 0.96	i
107) CCCCC/C=C\C/C=C\C/C=C\C/C=C\CCCC(=O)Nc1ccc(O)cc1
→ 1.5	i
108) CCCOc1ccc2[nH]cc(C3=CCNCC3)c2n1
→ 0.57	i
109) Cc1nc(-c2ccccc2)nc2c1CC(=O)N2CCN1CCOCC1
→ 0.67	i
110) O=C(CCc1nc(C2=CCN(Cc3cccc(Cl)c3)CC2)no1)Nc1ccc(F)cc1
→ -0.25	i
111) O=C1NCN(c2ccccc2)C12CCN(CC1COc3ccccc3O1)CC2 (stereo not given)
→ 0.94&0.11&0.66	i
112) Fc1ccc(Cl)cc1C1NCCc2[nH]cnc21 (stereo not given)
→ 0.13	i
113) COc1ccc(CC(=O)N2CCN(Cc3noc4ccccc34)CC2)cc1OC
→ -1.3	i
114) O=C(O)c1ccc2[nH]cc(CCCCN3CC=C(c4ccccc4)CC3)c2c1
→ 0.34	i

From PubChem
